CSC inhib – cancer stem cell viability inhibitors, primary screen, luminescence | cancer stem cell-like cells viability | inhibition, % at 7.5 µM | 300,000 compounds, 1.1% hits;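 active = mean at 75% or more and at least half the replicates too; inconclusive = mean and replicates disagree; tested in HMLE shEcad cells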;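 also: 0% = median of negative and 100% = median of positive control wells; the first replicate is given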
PABP FP inh – PABP poly(A) RNA binding inhibitors, primary screen, biochemical, fluorescence polarization, uHTS; Polyadenylate-binding protein 1 (Homo sapiens), P11940; inhibition, % at 35 µM; 290,000 compounds, 1% hits;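 active = 50% or more with normal probe brightness, or confirmed in later tests; inconclusive = above 50% with abnormal brightness, or retests that disagree; inactive = below 50% or failed in later tests; about a fifth of its hits are not listed in these tables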;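 also: calls also rest on retests at 20 µM and on dose response follow-up; controls were probe without protein and protein plus probe with vehicle; some compounds called inactive have numbers as strong as hits; many hits fall short of the cut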
Target sequence (P11940 whole entry, looked up): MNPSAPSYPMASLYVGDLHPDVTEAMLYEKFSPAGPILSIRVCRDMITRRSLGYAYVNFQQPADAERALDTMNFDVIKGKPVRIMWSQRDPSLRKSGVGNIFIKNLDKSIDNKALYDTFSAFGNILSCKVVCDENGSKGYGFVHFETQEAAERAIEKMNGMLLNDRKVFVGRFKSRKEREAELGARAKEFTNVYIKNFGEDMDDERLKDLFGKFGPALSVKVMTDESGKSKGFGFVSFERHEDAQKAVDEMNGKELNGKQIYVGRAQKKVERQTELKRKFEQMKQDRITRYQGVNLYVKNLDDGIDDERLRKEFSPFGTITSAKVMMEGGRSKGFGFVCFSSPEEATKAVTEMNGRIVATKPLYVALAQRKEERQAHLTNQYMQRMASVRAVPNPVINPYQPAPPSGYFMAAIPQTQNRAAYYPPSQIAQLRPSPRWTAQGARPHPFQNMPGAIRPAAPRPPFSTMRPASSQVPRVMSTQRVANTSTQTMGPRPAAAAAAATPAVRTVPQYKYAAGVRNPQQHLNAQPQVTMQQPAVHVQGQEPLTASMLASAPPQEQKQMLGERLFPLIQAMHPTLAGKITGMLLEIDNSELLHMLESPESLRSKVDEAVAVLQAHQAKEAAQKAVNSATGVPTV
UUG fidelity – modulators of yeast start codon fidelity, primary screen, whole organism, S. cerevisiae, single point, plate reader. S. cerevisiae UUG-firefly luciferase reporter, luminescence/redox ratio. activity score, % at 18.7 µM. 350,000 compounds, 0.13% hits;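 active = replicate mean at a twofold rise or more, about +100% in these data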;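 also: firefly luciferase made from a UUG start codon reports start codon fidelity; reporter light over untreated wells divided by growth signal over untreated wells; some hits fall short of that in this replicate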
Rce1 inhib – yeast Rce1p protease inhibitors, primary screen, biochemical, fluorescence, cell-free homogeneous | CAAX prenyl protease 2 (Saccharomyces cerevisiae (strain ATCC 204508 / S288c)), Q03530 | calls only | yeast membranes, quenched prenylated peptide cleavage fluorescence | 290,000 compounds, 0.27% hits;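 active = fall in fluorescence gain of 50% or more versus controls, with final raw signal at or below 3038400; inconclusive = same 50% fall but final raw signal above 3038400; inactive = fall in fluorescence gain under 50%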;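 also: plate controls were neutral control wells for no effect and wells lacking membranes for full effect; tested at 10 µM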
Target sequence (Q03530 whole entry, looked up): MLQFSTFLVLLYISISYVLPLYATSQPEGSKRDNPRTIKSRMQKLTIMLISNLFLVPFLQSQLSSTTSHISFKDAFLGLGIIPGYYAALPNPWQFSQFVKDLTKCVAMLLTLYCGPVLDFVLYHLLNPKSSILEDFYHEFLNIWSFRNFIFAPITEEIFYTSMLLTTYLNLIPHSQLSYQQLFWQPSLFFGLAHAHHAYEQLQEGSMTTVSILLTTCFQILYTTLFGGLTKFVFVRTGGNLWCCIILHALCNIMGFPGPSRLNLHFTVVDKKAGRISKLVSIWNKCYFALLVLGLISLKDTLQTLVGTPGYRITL
eIF4H inh – human eIF4H binding inhibitors, primary screen, translation initiation inhibitor project, biochemical, uHTS, fluorescence polarization. eIF4H fluorescence polarization binding assay. inhibition, % at 35 µM. 290,000 compounds, 0.94% hits;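 active = 50% or more with normal probe brightness, or confirmed in later tests; inconclusive = above 50% with abnormal brightness, or retests that disagree; inactive = below 50% or failed in later tests; about a fifth of its hits are not listed in these tables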;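 also: calls also rest on retests at 20 µM and on dose response follow-up; 0% = protein and probe with vehicle and 100% = probe without protein; strong numbers were not always called active; many hits fall short of the cut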
MT1-MMP act inh – blockers of MT1-MMP proenzyme processing, primary screen, HT1080 RFP-PRO-GFP cells, GFP/RFP fluorescence; Matrix metalloproteinase-14 (Homo sapiens), P50281; 360,000 compounds, 0.061% hits; AID 651647, 2012; GFP/RFP ratio change, % at 20 µM; GFP/RFP ratio fluorescence, overnight; percent of plate control window, DMSO zero;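 active = GFP/RFP ratio change of at least 30% with cell ATP level not reduced by more than half and red fluorescence within 50% of control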; also: strong numbers were not always called active
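Test system: HT1080 cells expressing an RFP-PRO-GFP fluorescent reporter construct / Compound dosing: single-point 20 µM compound, 1% DMSO / Schedule: cells overnight before dosing, compound overnight, 37 °C, 5% CO2 / Evaluation: GFP/RFP fluorescence ratio / Control set: DMSO and RFP-L50D-GFP cell wells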
Env fusion inh – inhibitors of HIV-1 Env-driven cell-cell fusion, primary screen, HeLa-JRFL effector, CEM21 target cells, luciferase | AID 651610, 2012 | 360,000 compounds, 1.1% hits | inhibition, % at 12.3 µM;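 active = mean replicate inhibition score of at least 50 and every replicate individually at or above 50; inconclusive = only one of the two criteria met; inactive = mean below 50 and not all replicates reaching 50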;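 also: 0% = plate neutral controls and 100% = maraviroc near 300 nM; one replicate is shown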
MT1-MMP act inh RFP – second read-out of MT1-MMP act inh, no call of its own (marks repeat the call); RFP signal change, %; measured here: RFP expression control read;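 0 = vehicle wells; hits needed this value within 50% of zero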
An asterisk follows results filed as active; i = inactive; u = inconclusive; x = no result given. An unsorted share of the library, and some 2.9% of all compounds hit somewhere here.

no.	Structure	CSC inhib	PABP FP inh	UUG fidelity	Rce1 inhib
1	O=C(COc1ccccc1Cl)N1CCCC1	0	5	-8	i
2	Cc1nn(C)cc1CN(C)C(=O)CC12CC3CC(CC(C3)C1)C2	-10	-4	x	i
3	CCn1c(CNc2ccc(OC)cc2)nnc1SCC(=O)c1ccc(OC)cc1	9	8	-14	i
4	CC1(C)CC(=O)C2=C(C1)N(CC1CCCO1)C(=O)C2(NC(=O)c1cccnc1)C(F)(F)F (centres undefined)	6	10	-13	i
5	CCOC(=O)Cn1c2ccc(C)cc2c2nc(C)sc21	2	-2	-17	i
6	Cc1ccccc1-n1c(-c2cccnc2)n[nH]c1=S	-11	2	-18	i
7	COc1ccc(S(=O)(=O)CCC(=O)Nc2c(C)cccc2C)cc1	5	9	-12	i
8	O=C(Nc1cccc(Cl)c1)Nc1ccc2c(c1)OCO2	44	13	-19	i
9	CCC1(CC)NC(=O)N(CC(=O)Nc2cccc3ccccc23)C1=O	-5	x	-37	x
10	CCCCCCc1ccc(OC(=O)c2ccncc2)cc1	10	0	-17	i
11	CN1CCN(S(=O)(=O)c2ccc3c(c2)OCCO3)CC1	-4	-1	x	i
12	N#C/C(=C\c1cccnc1)C(=O)Nc1ccc(SC(F)F)cc1	-4	4	-21	i

no.	eIF4H inh	MT1-MMP act inh	MT1-MMP act inh RFP	Env fusion inh
1	5	2	3	-54
2	-12	4	3	x
3	-9	-2	-2	15
4	-5	2	1	-6
5	1	-2	2	-2
6	-9	-6	5	x
7	-7	-3	-3	14
8	1	2	-4	-79
9	x	-3	-1	x
10	-7	1	3	13
11	-12	7	4	x
12	4	1	0	-17

Reprinted at random: 2 records from the list.
no.	Structure	CSC inhib	PABP FP inh	UUG fidelity	Rce1 inhib
12	N#C/C(=C\c1cccnc1)C(=O)Nc1ccc(SC(F)F)cc1	-4	4	-21	i
8	O=C(Nc1cccc(Cl)c1)Nc1ccc2c(c1)OCO2	44	13	-19	i

no.	eIF4H inh	MT1-MMP act inh	MT1-MMP act inh RFP	Env fusion inh
12	4	1	0	-17
8	1	2	-4	-79

(continued)
no.	Structure	CSC inhib	PABP FP inh	UUG fidelity	Rce1 inhib
13	CC(C)n1ncc2c(C(=O)N3CCN(Cc4ccc(Cl)s4)CC3)cc(C3CC3)nc21	x	x	3	x
14	COc1ccc(CCC(=O)NCc2cn3ccccc3n2)cc1	-12	2	x	i
15	CCOc1ncccc1C(=O)N(C)CC1COc2ccccc2O1 (centres undefined)	-15	-2	x	i
16	NC(=S)NNC(=O)c1ccccc1	-11	-7	-26	i
17	O=C1C2CC=C(Cl)CC2C(=O)N1CNc1ccccn1 (centres undefined)	-7	9	x	i
18	CC1CCCCC12NC(=O)N(CC(=O)Nc1ccccc1N1CCOCC1)C2=O (centres undefined)	7	-3	x	i
19	F[B-](F)(F)COCc1ccccc1Br	x	x	-14	x
20	COc1ccc(C(=O)Nc2ccc(N3CCCC3)cc2)cc1	-7	13	-14	i
21	CCOc1ccc(OCc2ccc(C(=O)O)o2)cc1	14	4	x	i
22	CCCC(=O)Nc1ccc(-c2csc(N/N=C\c3ccncc3)n2)cc1	13	3	-10	i
23	O=C(COc1ccccc1)Nc1ccc(S(=O)(=O)Nc2ncccn2)cc1	8	14	x	i
24	CC(=O)Nc1ccc(NC(=O)COC(=O)c2c3c(nc4ccccc24)CCN(Cc2ccccc2)C3)cc1	5	31	x	i

no.	eIF4H inh	MT1-MMP act inh	MT1-MMP act inh RFP	Env fusion inh
13	x	-4	-7	-2
14	-5	-2	2	-3
15	-3	2	8	x
16	-12	-2	5	-194
17	-9	6	4	x
18	-2	1	-1	9
19	x	2	7	16
20	18	2	1	x
21	30	-1	-3	x
22	5	18	-19	-3
23	-7	-3	-1	7
24	2	-11	-2	-5

no.	Structure	CSC inhib	PABP FP inh	UUG fidelity	Rce1 inhib
25	CC(=O)Nc1ccc(C(=O)OCC(=O)Nc2ccc(S(=O)(=O)N3CCOCC3)cc2)cc1	x	x	15	x
26	CCOc1ccc(-c2cn(-c3cccc(SC)c3)c(=O)[nH]2)cc1	33	2	-6	i
27	COc1ccc(N(C(=O)C(C)C)S(=O)(=O)c2cccc([N+](=O)[O-])c2)cc1	-3	-3	-6	i
28	Cc1ccc(CSCCNS(=O)(=O)c2ccc(C)cc2)cc1	-8	0	x	i
29	CCOC(=O)N1CCC(NC(=O)CN2C(=O)COc3ccc(C(C)(C)C)cc32)CC1	2	4	15	i
30	CCCC1CCC(c2ccc(/C(N)=N/O)cc2)CC1 (centres undefined)	13	-2	x	x
31	CCOC(=O)C1=C(C)NC(=O)NC1c1c(O)ccc2ccccc12 (centres undefined)	6	1	-19	i
32	C[C@H](NC(=O)OC(C)(C)C)C(=O)N/N=C/c1ccc2nccnc2c1	-18	6	-5	i
33	CCC(C)NS(=O)(=O)c1ccc(-c2csnn2)s1 (centres undefined)	15	2	-2	i
34	Cc1ccc(C(=O)N/N=C/c2c(O)ccc3ccccc23)cn1	81*	-10	-17	i
35	O=C(Nc1cc(C(F)(F)F)ccc1N1CCOCC1)c1ccc(Cl)nc1	-3	-3	-21	i
36	Cc1ccc(CCC(=O)Nc2ccc(CC(=O)O)cc2)o1	1	0	12	i

no.	eIF4H inh	MT1-MMP act inh	MT1-MMP act inh RFP	Env fusion inh
25	x	-3	-2	-9
26	1	-2	1	-40
27	3	1	3	-5
28	-1	-1	-3	-4
29	7	3	-3	x
30	-5	-7	-3	3
31	3	-2	1	-8
32	-11	-2	1	-4
33	4	-10	-2	x
34	5	-57	-3	13
35	-7	-3	-2	x
36	-4	-2	-3	-6

no.	Structure	CSC inhib	PABP FP inh	UUG fidelity	Rce1 inhib
37	CN(C)c1nc(N(C)C)nc(N2CC(=O)N(c3ccccc3)C2=N)n1	x	1	x	i
38	CCn1ncc(S(=O)(=O)NCc2ccccc2Cl)c1C	-3	-12	-6	i
39	CCOCCCNc1nc2c(C)cccn2c(=O)c1/C=C1\SC(=S)N(C(C)CC)C1=O (centres undefined)	3	u	-2	i
40	COc1ccc(NC(=O)Nc2c[nH]c(=O)[nH]c2=O)cc1OC	-4	4	4	i
41	CCCc1c(NC(=O)Nc2ccc(F)cc2)cnn1-c1ccc(Cl)cc1	25	-5	x	i
42	Cc1ccc2[nH]c(=O)c3cc(C(=O)NC(C)C)sc3c2c1	4	15	x	i
43	CS(=O)(=O)c1ccc(Cl)c(NC(=O)COC(=O)/C=C/c2cnc3ccccc3n2)c1	3	7	x	i
44	CC1CCC2(CC1)NC(=O)N(CC(=O)c1ccc(Cl)s1)C2=O (centres undefined)	x	-10	-8	i
45	O=C(COc1ccccc1)Nc1ccc(Cl)cc1Cl	-9	0	x	i
46	OCC#CCSc1nnc(-c2ccccc2Br)o1	-13	4	-31	i
47	OCCN1CCN(Cc2cc(Br)cc(Br)c2O)CC1	-14	19	x	i
48	COc1ccc(CN2CCN(CC=C(C)C)C(CCO)C2)cc1Cn1cccn1 (centres undefined)	-5	-9	x	i

no.	eIF4H inh	MT1-MMP act inh	MT1-MMP act inh RFP	Env fusion inh
37	9	-4	-3	0
38	2	3	4	8
39	u	-34	57	12
40	-2	-5	-1	10
41	-4	11	-7	-13
42	6	4	1	-18
43	-1	4	3	0
44	5	-2	-5	6
45	0	x	x	x
46	-6	7	1	-12
47	-5	9	5	-160
48	-19	-1	4	14

no.	Structure	CSC inhib	PABP FP inh	UUG fidelity	Rce1 inhib
49	Cc1cnc(NC(=O)CN2CCN(c3ccccc3F)CC2)s1	x	5	-20	i
50	Cc1ccc(C(=O)NCCCNC(=O)c2ccccc2F)cn1	-7	2	-18	i
51	COc1ccc(S(=O)(=O)NC2(C(F)(F)F)N=C3SCCN3C2=O)cc1 (centres undefined)	8	-14	-15	i
52	CCCS(=O)(=O)N1CCC(C(=O)NCCN2CCC(Cc3ccccc3)CC2)CC1	-7	3	x	i
53	COc1ccc(OC)c(C(=O)CSc2nnc(-c3cccs3)n2C)c1	-4	-4	-4	i
54	Cc1[nH]c(=O)[nH]c(=O)c1/C=N/NC(=O)[C@H](C)N	-4	21	-1	i
55	CCN(CC(=O)NCc1cccs1)C(=O)c1cccc(S(=O)(=O)N(C)C)c1	-17	x	-6	x
56	C/C(=N/NS(=O)(=O)c1ccc(Cl)cc1)c1ccncc1	2	-1	-8	i
57	COc1ccc(S(=O)(=O)NCc2cccnc2)cc1NC(=O)c1ccc(Cl)cc1	-1	x	-8	i
58	COc1ccc(CCC(=O)OCC(=O)N(C)c2c(N)n(Cc3ccccc3)c(=O)[nH]c2=O)cc1	-2	x	-17	i
59	CC1(C)CCc2cc(CN3CCN(c4ccccn4)CC3)ccc2O1	14	6	-6	i
60	CCOc1ccc(-n2c(=O)c3sccc3n(CC(=O)NCc3ccco3)c2=O)cc1	-11	1	-4	i
61	O=c1ccc2cc(S(=O)(=O)N3CCN(c4ccccc4)CC3)ccc2[nH]1	-3	-10	-1	i
62	CC(=O)c1cccc(NC(=O)C2C3C=CC(C3=C(c3ccccc3)c3ccccc3)C2C(=O)O)c1 (centres undefined)	21	-7	-9	i

no.	eIF4H inh	MT1-MMP act inh	MT1-MMP act inh RFP	Env fusion inh
49	6	4	3	x
50	-15	2	4	-10
51	-6	-4	-3	x
52	-5	5	4	x
53	8	0	6	x
54	4	0	2	0
55	x	1	0	x
56	-4	1	-1	x
57	x	5	0	5
58	x	1	-4	x
59	-7	0	0	20
60	6	-3	2	0
61	-2	2	4	-11
62	4	2	3	10

Reformatted: entries from further up
(10) CCCCCCc1ccc(OC(=O)c2ccncc2)cc1
  CSC inhib: 10
  PABP FP inh: 0
  UUG fidelity: -17
  Rce1 inhib: i
  eIF4H inh: -7
  MT1-MMP act inh: 1
  MT1-MMP act inh RFP: 3
  Env fusion inh: 13

(11) CN1CCN(S(=O)(=O)c2ccc3c(c2)OCCO3)CC1
  CSC inhib: -4
  PABP FP inh: -1
  UUG fidelity: x
  Rce1 inhib: i
  eIF4H inh: -12
  MT1-MMP act inh: 7
  MT1-MMP act inh RFP: 4
  Env fusion inh: x

Bioassay records: PubChem, several laboratories
